Mtb H37Rv = M. tuberculosis H37Rv growth inhibitors, H37Rv strain (AID 1626); M. tuberculosis H37Rv growth inhibition; higher % means a stronger effect; inhibition, % at 10 µM, or IC50 in µM where a hit was titrated; 0.95% of 220,000 active;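 active = confirmed in a dose series; inconclusive = inhibition above 80% but not taken into the dose series; inactive = below 80% or under 30% at every dose of the series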;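 note: bacteria incubated seven days before Alamar blue readout; 0% = bacteria only wells and 100% = bacteria with antibiotic wells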
Arbovirus anti = antivirals against arbovirus infection | arbovirus infection cell-based antiviral screen | AID 1251 | inhibition, % at 10 µM | 0.37% of 200,000 active;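 active = inhibition from about 30%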;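 note: bluetongue infection of BSR cells; cell survival read as ATP light after 72 h; 0% = infected wells without compound and 100% = uninfected wells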
YopH PTP inh = YopH (Yersinia) phosphatase inhibition. fluorescence Ex485/Em525. inhibition, %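 (about 10 µM by stock and volumes)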. 0.16% of 140,000 active. AID 898;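 active = inhibition of 50% or more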;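 note: controls were vehicle for no effect and minimum signal wells for full effect; inactives centre near -20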
RecA intein inh = inhibitors of M. tuberculosis RecA intein splicing; P9WHJ3; cell-free RecA intein splicing, fluorescence; inhibition, %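 (about 9 µM by stock and volumes)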; 0.75% of 290,000 active; AID 2221; in the data active = inhibition above about 30%; inconclusive = no clear call, values can overlap the other calls;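 note: 0% = vehicle wells and 100% = reference inhibitor control wells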
Target sequence (P9WHJ3 whole entry, looked up): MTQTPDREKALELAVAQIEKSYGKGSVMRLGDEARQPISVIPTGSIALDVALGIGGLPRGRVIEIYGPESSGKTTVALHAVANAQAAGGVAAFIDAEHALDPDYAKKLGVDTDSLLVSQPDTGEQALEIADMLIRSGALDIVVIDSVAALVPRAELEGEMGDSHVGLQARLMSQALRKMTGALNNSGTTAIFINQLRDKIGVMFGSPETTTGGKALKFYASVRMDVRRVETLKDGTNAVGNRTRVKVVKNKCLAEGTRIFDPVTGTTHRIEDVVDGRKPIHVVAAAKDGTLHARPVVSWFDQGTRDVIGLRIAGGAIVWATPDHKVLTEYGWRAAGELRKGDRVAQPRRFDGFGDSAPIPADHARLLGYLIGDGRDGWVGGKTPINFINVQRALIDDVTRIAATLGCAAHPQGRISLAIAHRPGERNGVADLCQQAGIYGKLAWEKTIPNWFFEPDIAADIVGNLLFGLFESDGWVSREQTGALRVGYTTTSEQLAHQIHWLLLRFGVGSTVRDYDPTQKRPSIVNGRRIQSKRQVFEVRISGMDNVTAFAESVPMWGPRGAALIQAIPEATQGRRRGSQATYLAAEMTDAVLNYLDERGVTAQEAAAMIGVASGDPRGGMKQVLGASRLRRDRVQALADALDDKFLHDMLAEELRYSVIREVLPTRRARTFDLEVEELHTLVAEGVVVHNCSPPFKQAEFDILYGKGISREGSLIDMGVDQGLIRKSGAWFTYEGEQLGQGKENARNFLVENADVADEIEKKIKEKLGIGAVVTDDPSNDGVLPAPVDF
Mtb bLac sens = beta-lactam sensitization of Mtb H37Rv. 0.27% of 330,000 active. M. tuberculosis H37Rv growth with meropenem, percent inhibition; hits of this screen are not shown here. AID 434955. inhibition, % at 25 µM;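 active = about 74% or more and at least 40 points above the plate without the antibiotic, then above 30% in a dose series; inconclusive = first-round hits that could not be retested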;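 note: growth measured after seven days incubation then overnight dye step; 0% = bacteria only wells and 100% = bacteria with antibiotic; twin plates without the antibiotic show which effects depend on it; some results filed as inactive read as strong as hits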
* = called active by the depositor; ? = inconclusive; nt = no result given.

SMILES	Mtb H37Rv	Arbovirus anti	YopH PTP inh	RecA intein inh	Mtb bLac sens
N/C(=N\OC(=O)/C=C/c1ccccc1Cl)c1ccncc1	3%	1	nt	-0.8	-1
Cc1noc(NS(=O)(=O)c2ccc(N/C=C/C(=O)c3ccc4c(c3)OCO4)cc2)c1C	-4%	2	-20	-2.4	57
COc1ccccc1NC(=O)Cc1cccs1	10%	-4	-12	-1.5	-5
O=C(NC(Cc1ccccc1)C(=O)O)/C(=C/c1ccccc1)NC(=O)c1ccccc1 (configuration not stated)	-3%	-8	-43	-2.4	1
Oc1ccccc1Nc1nc(NCc2ccccc2)c2ccccc2n1	?	-31	nt	-0.1	100
COc1ccc(C(=O)NC(C(=O)NCC(=O)Nc2c(C)cccc2C)C(C)C)cc1 (configuration not stated)	5%	1	-14	-0.5	2
O=c1cc(-c2ccc(O)cc2)oc2ccc(O)cc12	-6%	-6	nt	3.3	-5
CCOC(=O)/N=C(/NC(=O)Nc1ccc(C(=O)OCC)cc1)OC	62%	-3	14	4.1	-12
NC(=O)C1CCCCc2c1[nH]c1ccc(Cl)cc21 (configuration not stated)	nt	nt	nt	-1.6	-4
COc1ccc2c(c1)c1ncn(CCN3CCCCC3)c(=O)c1n2C	-5%	13	-14	-1.4	9
CC(=O)c1cccc(NC(=O)c2cccc3ccccc23)c1	nt	nt	nt	0.9	-12
O=C(COC(=O)c1cc([N+](=O)[O-])ccc1N1CCOCC1)NCc1ccc(F)cc1	nt	nt	nt	3.3	?
CC(C)n1cc(/C(N)=N/O)c(=O)n(Cc2ccccc2)c1=O	-3%	nt	nt	0.3	0
COc1ccc(NC(=O)CSc2nccn2Cc2ccco2)c(OC)c1	nt	nt	nt	-0.4	-2
Cc1ccc(S(=O)(=O)NC(C)C(c2cccs2)N2CCOCC2)cc1 (configuration not stated)	0%	0	-21	1.1	4
COc1ccc(C(=O)NNC(=O)c2cc3cc(OC)ccc3oc2=O)cc1	1%	nt	nt	-8.1	6
Cc1onc(-c2ccccc2Cl)c1C(=O)N1CCCCC1	nt	nt	nt	0.7	2
Cc1cccc(-c2noc(C(C)NC(=O)c3ccco3)n2)c1 (configuration not stated)	nt	nt	nt	-1.5	0
Cc1ccccc1CC1(CO)CCCN(C(=O)c2cc(Cl)ccc2F)C1 (configuration not stated)	-15%	-2	nt	5.4	-1
CN(C)C(CNC(=O)CCNC(=O)c1ccc(Cl)cc1)c1ccco1 (configuration not stated)	nt	nt	nt	1.2	4
CNC(=S)NNC(=O)COc1cccc(C)c1C	-2%	-8	-45	0.4	-3
CSCCNC(=O)c1ccc(C(C)(C)C)cc1	2%	2	-26	2.8	-15
CC(C)Cc1nnc(NC(=O)CN2C(=O)C3CCCCC3C2=O)s1 (configuration not stated)	nt	nt	nt	-0.9	-17
O=[N+]([O-])c1ccccc1/C=C/C=N/N1CCCCC1	1%	-5	nt	1.6	5
O=C(O)CCC(=O)Nc1ccccc1C(=O)NC1CCCCC1	0%	0	-32	-2.3	1
CCn1c(SCC(=O)NCCc2ccccc2)nc2c(c1=O)SC(C)C2 (configuration not stated)	4%	4	-4	-4.7	-2
O=C(c1ccccc1)n1ccc(-c2cnc(-c3ccccc3)s2)n1	4%	7	-9	2.7	-1
COc1ccc(C2=NOC(C(=O)NCc3cccs3)C2)cc1OC (configuration not stated)	-5%	-3	-15	3.8	3
COc1cc(S(=O)(=O)N(C)C)ccc1F	-6%	-3	-30	-5.3	-17
CCOc1ccc(NC(=S)Nc2cc(-c3ccccc3)[nH]n2)cc1	?	3	-31	1.5	96
CC(=O)c1ccc(N2CCN(C(=O)c3ccc(OCc4c(C)noc4C)cc3)CC2)cc1	-4%	-7	1	1.8	?
CCOC(Cn1cc(C)c(=O)[nH]c1=O)OCC	-15%	20	nt	-5.1	-6
CCCC(OC(=O)CN1C(=O)COc2ccccc21)C(=O)NC1CCCC1 (configuration not stated)	nt	5	-26	-6.3	0
O=C(CS(=O)(=O)Cc1ccccc1)Nc1ncccn1	0%	5	-8	-6.7	-9
CCc1c(O)nc(SC2CC(=O)N(c3ccccc3)C2=O)[nH]c1=O (configuration not stated)	-6%	1	-14	-0.9	5
Cc1ccc(F)cc1NC(=O)CCc1c(C)[nH]c(=O)c(C#N)c1C	nt	nt	nt	-0.3	2
O=C(Nc1cc(S(=O)(=O)Nc2ccc(Cl)cc2)ccc1O)c1ccc(S(=O)(=O)N2CCCCCC2)cc1	5%	-17	nt	-2.5	2
CCOC(=O)c1sc(N/N=C/c2ccccc2)nc1C	64%	-6	-32	-0.9	73
COCCN(C(=O)c1ccco1)c1nnc(-c2ccc(OC)c(OC)c2)s1	2%	1	-23	0.4	-4
CC1CCN(C(=O)CSc2nnc(CNC(=O)c3ccco3)o2)CC1	-6%	7	-5	-2.5	-5

3 compounds drawn at random from the list so far:
SMILES	Mtb H37Rv	Arbovirus anti	YopH PTP inh	RecA intein inh	Mtb bLac sens
CNC(=S)NNC(=O)COc1cccc(C)c1C	-2%	-8	-45	0.4	-3
O=[N+]([O-])c1ccccc1/C=C/C=N/N1CCCCC1	1%	-5	nt	1.6	5
CCOC(=O)c1sc(N/N=C/c2ccccc2)nc1C	64%	-6	-32	-0.9	73

Next compounds:
SMILES	Mtb H37Rv	Arbovirus anti	YopH PTP inh	RecA intein inh	Mtb bLac sens
Cc1cccc(NC(=O)C(=O)NCc2ccccn2)c1	0%	7	7	0.2	3
Cc1c(C=O)cnn1CCC(=O)O	-6%	nt	-6	-0.9	3
CCOc1ccc(CN2C(=O)c3ccccc3C2=O)cc1C(=O)Nc1nnc(SCC)s1	-8%	-12	-20	1.4	2
CC(NCc1ccc(S(N)(=O)=O)cc1)C(=O)NCc1ccccc1 (configuration not stated)	nt	nt	nt	-0.8	-5
COc1ccc(NC2c3ccccc3C(=O)N2c2ccccn2)cc1Cl (configuration not stated)	58%	-1	-39	0.6	-4
CCCc1nc2ccccc2n1Cc1ccccc1OC	0%	16	nt	10	7
CCN(CC)C(=O)CSc1nc2ccccc2c(=O)n1-c1ccccc1OC	0%	6	-6	12	-12
CSc1sc(C(=O)N(C)C)cc1S(=O)(=O)C(C)C	7%	nt	nt	0.2	-8
COc1ccc(/C=N/NC(=O)CNC(=O)C2COc3ccccc3O2)cc1OC (configuration not stated)	-4%	2	-38	1.0	-5
O=c1cc(-c2ccccc2)nc2cc(-c3ccc(F)cc3)[nH]n12	nt	nt	nt	0.9	1
Cc1cc(Cl)ccc1OCC(=O)NCCCn1ccnc1	3%	-1	-8	-0.3	1
Cc1ccc2nc(NC(=O)CSc3nc4ccccc4o3)sc2c1	2%	9	-5	13	58
CCN1CCCC1CNC(=O)Cn1nc(C)n2nc(-c3ccccc3)cc2c1=O (configuration not stated)	nt	nt	nt	-0.7	?
Cn1c(=O)[nH]c(=O)c2c1nc(NCc1ccccc1)n2Cc1ccc(F)cc1	nt	nt	nt	0.9	-3
CC(C)(C)c1ccc(C(=O)Nc2ccc(F)cc2)s1	13%	nt	nt	2.1	-1
CC1CCCC(NC(=O)COC(=O)Cc2ccc(Br)cc2)C1C (configuration not stated)	5%	4	nt	1.7	-9
Cc1ccc(S(=O)(=O)N/N=C/c2cccc3nccnc23)cc1	-3%	nt	nt	0.1	-6
O=C(CCN1CCCCC1)Nc1ccc(Cl)cc1C(=O)c1ccccc1	nt	nt	nt	-3.4	8
CC(C)C(=O)N1CCN(c2ccccc2NC(=O)c2ccc(C#N)cc2F)CC1	-2%	5	nt	-1.4	-12
CCOC(=O)C1=C(Nc2ccc(Cl)cc2)OCC1=O	9%	nt	nt	-0.6	-16

Another view of part of the listing above.
Values in the order – Mtb H37Rv	Arbovirus anti	YopH PTP inh	RecA intein inh	Mtb bLac sens
COc1ccc(/C=N/NC(=O)CNC(=O)C2COc3ccccc3O2)cc1OC (configuration not stated)
→ -4%	2	-38	1.0	-5
O=c1cc(-c2ccccc2)nc2cc(-c3ccc(F)cc3)[nH]n12
→ nt	nt	nt	0.9	1
Cc1cc(Cl)ccc1OCC(=O)NCCCn1ccnc1
→ 3%	-1	-8	-0.3	1
Cc1ccc2nc(NC(=O)CSc3nc4ccccc4o3)sc2c1
→ 2%	9	-5	13	58
CCN1CCCC1CNC(=O)Cn1nc(C)n2nc(-c3ccccc3)cc2c1=O (configuration not stated)
→ nt	nt	nt	-0.7	?
Cn1c(=O)[nH]c(=O)c2c1nc(NCc1ccccc1)n2Cc1ccc(F)cc1
→ nt	nt	nt	0.9	-3

Part of the list above in order of molar mass, rising.
SMILES	Mtb H37Rv	Arbovirus anti	YopH PTP inh	RecA intein inh	Mtb bLac sens
CC1CCCC(NC(=O)COC(=O)Cc2ccc(Br)cc2)C1C (configuration not stated)	5%	4	nt	1.7	-9
CC(C)C(=O)N1CCN(c2ccccc2NC(=O)c2ccc(C#N)cc2F)CC1	-2%	5	nt	-1.4	-12
COc1ccc(/C=N/NC(=O)CNC(=O)C2COc3ccccc3O2)cc1OC (configuration not stated)	-4%	2	-38	1.0	-5

(further entries)
SMILES	Mtb H37Rv	Arbovirus anti	YopH PTP inh	RecA intein inh	Mtb bLac sens
COc1ccccc1NS(=O)(=O)c1ccc(C(=O)NCC2(N(C)C)CCCCC2)cc1	nt	nt	nt	-0.8	-1
Cc1nn(Cc2ccccc2Cl)c(C)c1C(=O)NCCN1C(=O)S/C(=C\c2ccccc2)C1=O	3%	23	-21	4.0	0
Cn1c(=O)c(=O)n(C)c2cc(S(=O)(=O)Nc3ccc(OC(F)(F)F)cc3)ccc21	-4%	7	-19	-0.1	-2
COCCNC(=O)c1cc(-c2ccccc2)nn1CC1CC(c2cccnc2)=NO1 (configuration not stated)	5%	nt	nt	-2.7	-2
CCc1ccccc1NC(=O)CCC(=O)Nc1nnc(C(C)C)s1	nt	nt	nt	-0.2	-8
CCOc1ccc2nc(N/C(N)=N/S(C)(=O)=O)nc(C)c2c1	-1%	nt	nt	1.3	3
CCc1ccc(N2CC(C(=O)NCc3ccco3)CC2=O)cc1 (configuration not stated)	-8%	6	-22	8.3	-5
Cc1ccc(C)c(N(CC(=O)NC2CCCCC2)C(=O)CNC(=O)c2ccco2)c1	nt	nt	nt	-0.7	7
Cn1c(=O)[nH]c(=O)c2c1nc(N1CCOCC1)n2CC(=O)c1ccccc1	-7%	3	nt	1.7	-1
COc1ccc(CC(=O)Nc2c(C(=O)N3CCN(c4ccccc4OC)CC3)oc3ccccc23)cc1OC	nt	nt	nt	3.1	1
CCOc1cc(/C=C/c2nc3ccccc3c(=O)[nH]2)cc(Br)c1OC	nt	nt	nt	-2.4	-3
CCOC(=O)c1cc(CC)sc1/N=C/C1C(=O)CCCC1=O	5%	-3	nt	-2.5	-3
CN(C)c1nccc(NCc2ccccc2)c1C#N	3%	-2	nt	0.4	2
O=C(NCCCN1CCOCC1)/C(=C/c1ccc(F)cc1)NC(=O)c1ccccc1	-5%	5	nt	4.8	-3
CCOC(=O)C1=C(C)C(c2cccc(Oc3ccccc3)c2)NC(=S)N1 (configuration not stated)	8%	-24	-22	17	4
CCOC(=O)C1CCCN(C(=O)c2ccc(NC(=O)CC3SC(N4CCCC4)=NC3=O)cc2)C1 (configuration not stated)	nt	nt	nt	-6.3	-6
O=C(NCC(=O)N1CCN(c2ncccn2)CC1)c1cccs1	-10%	1	-16	-1.7	2
CN(C)S(=O)(=O)c1ccc(N2CCCC2)c(C(=O)N2CCN(S(=O)(=O)c3cccc(F)c3)CC2)c1	nt	nt	nt	-2.3	-15
COCCNS(=O)(=O)c1ccc(OCC(=O)OC)c(Cl)c1	-10%	4	-24	-1.4	-3
C[n+]1c2n(c3ccccc31)N=C(c1ccc(-c3ccccc3)cc1)CS2	5%	-16	nt	2.9	0
C/C(=N\NC(=O)C1CC1)c1ccc(N2CCOCC2)cc1	7%	17	nt	-2.9	-4
COc1cc(OC)c(NC(=O)c2ccc(F)cc2)cc1Cl	6%	6	nt	-2.2	0
Cc1cc(NC(=O)C2CCCCC2C(=O)O)no1 (configuration not stated)	0%	-1	-2	-0.1	-4
C[n+]1c2ccccc2nc2ccc(NCCO)cc21	nt	nt	nt	64*	99
COc1cccc(N(CC(=O)O)S(=O)(=O)c2ccccc2)c1	-1%	10	0	1.0	-17
O=C(c1ccc(Cl)cc1)N1CCC(N2CCC(C(=O)N3CCOCC3)CC2)CC1	nt	nt	nt	-1.4	?
O=C(CCN1C(=O)COc2ccccc21)NCc1cccs1	-1%	-2	-38	-0.2	15
O=C(N/N=C/c1ccco1)c1cc2ccccc2o1	nt	nt	nt	-0.7	-7
C#C[C@]1(O)CC[C@H]2[C@@H]3CCc4cc(OC5CCCC5)ccc4[C@H]3CC[C@@]21C	28%	-22	nt	8.0	92
O=C1CSC(=NC2CCCCC2)N1	-10%	-1	-49	-2.2	71

Source: PubChem

These rows are one share of the data; the hit share may differ from the screen's.
